Source: PubChem BioAssay (several laboratories)
Vif TR-FRET – inhibitors of Vif binding to APOBEC3G peptide, primary screen, biochemical, TR-FRET, GST-Vif 1-94, biotin-A3G peptide, dose response retest (AID 1117319); 260,000 tested, 0.57% active; inhibition, %; hits with a dose series show IC50 in µM; TR-FRET GST-Vif / biotin-A3G peptide binding; higher % means a stronger effect; test concentration not given here; strong numbers were not always called active;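 active = above the screen mean plus three standard deviations and confirmed in dose response; inconclusive = results disagree or hit not tested in dose response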;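 also: Vif residues 1-94 fused to GST binding biotinylated APOBEC3G peptide 110-148; 0% = full assay without inhibitor and 100% = GST in place of GST-Vif; retest series ran down from 100 µM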
Beta apoptosis – beta cell apoptosis inhibition; INS-1E cytokine-induced death, ATP luminescence, 48 h; percent of positive-control rescue, neutral wells zero; protection from apoptosis, % (no concentration beside the values); 300,000 tested, 0.8% active; AID 435005;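 active = all replicates at 75% or more, or half of them and the mean; inconclusive = half reach 75% but not the mean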;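 also: 0% = cytokine-treated negative control wells and 100% = positive control rescue; higher means more ATP so stronger rescue from cytokine killing; wells of about 40 µL received 100 nL stock; the first replicate is given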
MLL AF4-AF9 inh – MLL-AF4/AF9 protein interaction inhibition; inhibition, % at 10 µM; P42568; AlphaScreen, biotin-AF4 peptide binding to FLAG-AF9; 350,000 tested, 0.47% active;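 active = every replicate reaching a set inhibition limit, whatever the replicate mean, cut at about 25% in these data; inconclusive = mean inhibition reaches that limit but some replicates miss it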;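 also: 0% = plate neutral control median and 100% = total signal loss; the record names both 10 and 1 µM as test concentration; the first replicate is given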
Target sequence (P42568 whole entry, looked up): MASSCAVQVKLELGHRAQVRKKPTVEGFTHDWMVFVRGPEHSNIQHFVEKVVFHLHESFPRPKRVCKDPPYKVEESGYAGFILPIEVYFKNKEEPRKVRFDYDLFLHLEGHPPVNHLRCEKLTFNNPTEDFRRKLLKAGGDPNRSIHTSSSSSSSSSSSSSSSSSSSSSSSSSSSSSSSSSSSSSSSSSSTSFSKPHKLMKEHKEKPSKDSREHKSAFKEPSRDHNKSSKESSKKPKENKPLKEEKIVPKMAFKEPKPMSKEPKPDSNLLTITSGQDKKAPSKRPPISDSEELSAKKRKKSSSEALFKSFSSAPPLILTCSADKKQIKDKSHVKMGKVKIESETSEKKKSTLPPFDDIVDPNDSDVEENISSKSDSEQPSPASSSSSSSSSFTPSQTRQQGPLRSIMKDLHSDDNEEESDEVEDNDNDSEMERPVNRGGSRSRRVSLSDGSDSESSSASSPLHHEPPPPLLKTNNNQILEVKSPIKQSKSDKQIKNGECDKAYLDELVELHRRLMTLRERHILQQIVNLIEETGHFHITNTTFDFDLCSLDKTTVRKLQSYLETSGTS
Calb FLC – affects C. albicans growth with fluconazole; 300,000 tested, 0.57% active; growth inhibition, % (concentration not given with the values); AID 1979; C. albicans CaCi-2 (fluconazole-resistant clinical isolate) + fluconazole, Alamar Blue growth, 48 h;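 active = most replicates above 75%; inconclusive = exactly half above 75%; inactive = most below 75%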;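 also: all wells also contain fluconazole at 8 µg/ml as a sub-toxic cotreatment; 0% = median of DMSO wells and 100% = median of geldanamycin control wells; wells of about 8 µL received 7.5 nL stock; the first replicate is given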
A1 inh – inhibitors of the anti-apoptotic protein A1, read as caspase activation. MEF A1-2A-BIM cells, Caspase-Glo 3/7 luminescence, 3 h; percent of clofoctol response, vehicle zero. caspase activation, % (no concentration beside the values). 330,000 tested, 0.066% active;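 active = over half of replicate activation scores above 10%, or exactly half above 10 with the replicate mean above 10; inconclusive = replicate mean below 10 yet half the replicates above 10; inactive = over half of replicates below 10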;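 also: wells of about 30 µL received 50 nL stock; many hits fall short of the cut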
T cruzi inh – blocks replication of Trypanosoma cruzi | T. cruzi beta-gal in NIH3T3, luminescence, 90 h | inhibition, % (no concentration beside the values) | 300,000 tested, 1.4% active | AID 1885;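 active = mean inhibition across valid replicates above about 55%, limit read from the data; inconclusive = mean below that limit but half or more replicates reach it; inactive = mean below it, under half of replicates reach it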;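 also: signal also drops with host cell toxicity which is not excluded here; 0% = plate median of DMSO wells and 100% = zero luminescence signal; higher percent means less beta-gal luminescence so fewer parasites; stock transfer was 50 nL into about 50 µL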
RanGTP-Impb inh – disruptors of Ran-importin-beta complex formation – biochemical, FRET, CFP-Ran, YFP-importin-beta, homogeneous, primary screen; cell-free CFP-Ran/YFP-importin-beta FRET ratio; 300,000 tested, 1.1% active; inhibition, % (concentration not given with the values);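 active = most replicates above 15%; inconclusive = exactly half above 15%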;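 also: 0% = DMSO wells and 100% = Ran loaded with GDP instead of GTP; wells of about 40 µL received 100 nL stock; the first replicate is given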
LANA-H2A inh – blocks KSHV LANA binding to histone H2A/H2B. Q9QR71. cell-free LANA-H2A/H2B peptide, fluorescence polarization. inhibition, % (test concentration not listed). 320,000 tested, 0.6% active; in the data active = inhibition mostly above about 10%, no sharp cut-off; inactive = mostly below about 6.7%;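 also: stock transfer was 7.5 nL into about 10 µL; 0% = median of vehicle wells and 100% = median of positive control wells; one replicate is shown; the record names a cut of 25% in any replicate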
Numbers without * were called inactive; ? = inconclusive; . = not tested or not shown; & = joins results of further samples.

SMILES	Vif TR-FRET	Beta apoptosis	MLL AF4-AF9 inh	Calb FLC	A1 inh	T cruzi inh	RanGTP-Impb inh	LANA-H2A inh
CCN(CCO)C(=S)Nc1cc(S(=O)(=O)N(C)C)ccc1C	9%	-4	-2.0	-21	-0.3	4	5.6	2.9
O=C(NC12CC3CC(CC(C3)C1)C2)c1ccc(N2CCNCC2)c([N+](=O)[O-])c1	7%	10	4.1	-1	1.1	15	-3.6	-1.0
Cc1ccc(SCC(=O)N2CCN(c3ccccn3)CC2)cc1	-5%	2	1.3	-8	1.0	2	0.0	-2.6
Cc1cc(C)c(NC(=O)c2cccs2)c(C)c1NC(=O)c1cccs1	.	0	3.2	-1	1.1	15	-3.4	3.0
Cc1nc(-c2ccccc2)nc2[nH]c(=O)n(-c3ccccc3)c(=O)c12	17%	-3	.	-7	-1.4	8	2.7	2.6
O=C(Cc1ccccc1)Nc1ccc(N2CCCCC2)cc1	-2%	0	-2.4	6	-7.3	-1	-0.1	-2.1
Cc1ccc(-c2ccc(/C=N\n3cnnc3)o2)c(Br)c1	.	.	2.1	34	-0.4	0	0.5	-2.5
O=C(NCn1ccc(=O)[nH]c1=S)c1ccccc1	26%	-4	.	24	0.5	-12	1.1	-1.6
O=C(COC(=O)Cn1nnc2ccccc21)Nc1ccccc1Br	15%	-7	-3.8	0	0.7	-18	3.3	-1.3
Cc1cc(NC(=O)CCCN2C(=O)/C(=C/c3cccs3)SC2=S)no1	.	4	.	20	0.5	2	3.2	3.0
O=C(c1cc([N+](=O)[O-])ccc1Cl)N1c2ccccc2Sc2ccccc21	.	33	?	-7	1.0	15	-1.4	0.0
CCn1cc(C(=O)N2CCc3ccccc32)c(=O)c2cc(S(=O)(=O)N(C)C3CCCCC3)ccc21	-4%	8	.	40	-0.1	13	6.3	-2.3
O=C(CSc1ccc(F)cc1)N1CCOCC1	-4%	-10	-1.2	-16	0.2	-11	1.1	1.4
COc1cccc(C2NC(=O)NC(C)=C2C(=O)OCCSC)c1OC (stereo not given)	.	-2	.	-6	0.1	-23	0.4	-0.3
Cn1cccc1/C=C1\Cc2ccccc2C1=O	.	0	-2.5	4	-7.3	-12	75*	5.0
CSCCC(NC(=O)c1ccco1)C(=O)OC(C)C(=O)NC(=O)NC1CCCCC1 (stereo not given)	4%	-1	.	?	-0.1	-4	1.6	0.4
Cc1nc2c(sc(=S)n2Cc2ccco2)c(=O)n1CC(=O)Nc1ccccc1Cl	.	14	-0.7	-10	0.8	1	1.9	-4.9
O=C(c1c(F)cccc1F)N1CCN(CCOc2ccccc2)CC1	-3%	6	0.4	2	0.6	-9	-0.9	-0.5
CC(C)CC1CC(=O)OC1(C)C(=O)CSc1nc2ccccc2s1 (stereo not given)	5%	-6	.	1	-0.6	10	0.4	-4.9
CC1CC(C)CN(CCCNC(=O)C2CCC(=O)N2C2CCCC2)C1 (stereo not given)	0%	-1	3.3	-6	-1.0	9	0.5	-1.6
Cc1c(NC(=O)C(C)OC(=O)CNC(=O)c2ccc(C(C)(C)C)cc2)c(=O)n(-c2ccccc2)n1C (stereo not given)	0%	6	.	-5	0.3	-11	-1.4	-2.5
Cc1ccccc1NS(=O)(=O)c1ccc(C(=O)NCCCN2CCOCC2)cc1	6%	-3	-7.2	33	0.2	-5	4.4	-0.2
Cc1ccccc1C(=O)Nc1cccc(NC(=O)c2ncn[nH]2)c1	8%	-2	-0.3	-4	-0.2	-23	-1.4	1.4
O=C(CSC1=NCCS1)NCc1ccco1	-1%	.	.	-8	-0.3	-8	0.4	0.3
COCCn1c(N2CCN(c3ccccc3)CC2)nc2c1c(=O)n(C)c(=O)n2C	14%	0	0.6	-2	-0.7	2	-1.1	1.6
Cc1cnc(C(=O)NCCc2ccc(Cl)cc2)cn1	.	-4	2.7	-7	1.7	9	5.3	-3.3
COc1ccc(Nc2cc(C(=O)N3CCc4ccccc4C3)c3ccccc3n2)c(OC)c1	1%	12	11	5	0.4	54	?	-3.7
COc1ccc(NC(=O)CCCNC(=O)Cn2cnc3sc(C)c(C)c3c2=O)c(OC)c1	.	.	0.0	7	-6.0	-4	-4.1	-4.6
CN(C)S(=O)(=O)c1cc(NC(=O)CN2CCNC(=O)C2)ccc1Cl	0%	-1	0.2	-7	0.4	-9	-0.2	-0.3
CC(=O)Nc1ccc(S(=O)(=O)N2CCN(C(=O)c3ccco3)CC2)cc1	-2%	-6	-4.7	-3	-0.4	-14	-1.0	-2.1
COc1cccc(NC(=O)[C@H](Cc2c[nH]c3ccccc23)NC(=O)[C@@H]2Cc3ccccc3CN2)c1	.	0	4.1	-3	-0.6	0	?	-0.8
O=C(Nc1cccc2ccccc12)c1ccccc1Cl	-3%	.	0.8	-2	0.2	-18	5.4	-3.5
O=C(COC(=O)c1cc(S(=O)(=O)Nc2ccccc2Cl)ccc1O)Nc1ccc(F)c(F)c1F	-11%	4	1.3	.	0.0	.	.	-2.7
Clc1cccc(OCCCCN2CCCCC2)c1	11%	-3	-1.1	-13	1.9	15	-4.0	1.6
COc1ccc(Br)cc1S(=O)(=O)n1ccnc1	22%	0	.	4	-0.2	0	?	3.9
CC(C)CC1Nc2ccc(C(=O)NCCCN3CCOCC3)cc2NC1=O (stereo not given)	.	2	-7.8	1	1.0	3	-8.1	1.3
COc1cc(/C=C2/C(=N)N3C=CSC3=NC2=O)ccc1OCCCOc1cc(C)ccc1C	18%	13	.	15	8.5*	0	-1.9	-0.2
COc1ccc(C(CNC(=O)CN2C(=O)NC3(CC(C)CC(C)(C)C3)C2=O)N2CCOCC2)cc1 (stereo not given)	0%&-9%	-8	.	5	0.3	2	-1.3	4.2
c1ccc(CNc2c(-c3cccc(SC4CCCCC4)c3)nc3ccccn23)cc1	.	124*	9.1	.	0.8	.	.	5.3
COc1cc(OC)cc(C(=O)NC(=S)Nc2ccc(NC(=O)c3ccco3)cc2)c1	-7%	-2	.	1	1.7	-17	-3.6	4.9
CCOC(=O)Cn1cnc2scc(-c3ccc(C)cc3)c2c1=O	1%	-1	-2.8	-11	3.0	17	8.6	4.7
O=C(COC(=O)c1cc(S(=O)(=O)N2CCOCC2)ccc1Cl)NCc1ccco1	6%	-8	1.2	3	-0.9	-3	0.8	1.4
COc1ccc2c(c1)-c1nc(NC(=O)c3cccs3)sc1CC2	5%	.	.	?	0.4	41	-0.3	3.4
COc1ccc(NC(=O)CCS(=O)(=O)c2ccc3c(c2)oc(=O)n3C)cc1OC	.	5	-2.8	-9	0.0	4	-3.5	-3.2
CCN(CC)c1nc(NN)nc(Nc2ccc(C)c(Cl)c2)n1	.	30	-2.2	3	-0.1	43	1.0	-3.4
Cc1ccc2c(c1)N(CC(=O)Nc1ccc3c(c1)OCCO3)C(=O)CO2	-1%	2	.	7	1.7	6	?	-2.7
CCS(=O)(=O)c1ccc(O)c(NC(=O)/C=C/c2ccccc2)c1	5%	2	-2.9	-23	0.1	-3	-1.9	-4.7
Cc1ccc(NC(=O)/C(Cl)=C\c2ccccc2)cc1	.	1	6.4	1	-7.3	-1	1.1	-1.7
COc1ccc(Nc2ncc(C(=O)N3CCN(c4ccc(F)cc4)CC3)c3ccccc23)cc1	1%	9	.	-5	-0.7	32	-3.2	-9.1
CC(C)Oc1ccc(C(=O)NCc2cccs2)cc1	-2%	3	.	-9	-1.7	-17	-0.5	9.2

Additional entries.
SMILES	Vif TR-FRET	Beta apoptosis	MLL AF4-AF9 inh	Calb FLC	A1 inh	T cruzi inh	RanGTP-Impb inh	LANA-H2A inh
CCCOP(=O)(OCCC)c1c([N+](=O)[O-])cc(C(F)(F)F)cc1[N+](=O)[O-]	7%	1	.	0	0.6	-10	4.3	-4.7
Cc1cc(OC(=O)c2ccccc2C(F)(F)F)c([N+](=O)[O-])c(=O)[nH]1	.	-3	-0.7	9	0.6	10	0.1	-2.7
CCOc1ccc(NC(=O)N2CCc3ccccc3C2)cc1	.	-3	1.3	0	-5.2	11	0.5	3.6
O=C(NCCC1=CCCCC1)C1CCN(S(=O)(=O)c2cccc3nsnc23)CC1	-7%	.	.	-11	1.1	-9	-2.1	-4.8
O=C(Nc1ccc([N+](=O)[O-])cn1)c1cc(-c2cccc(Cl)c2)nc2ccccc12	.	2	.	3	-0.6	56*	1.9	-1.9
O=C(c1cc2n(n1)C(C(F)(F)F)CC(c1ccc(Cl)cc1)N2)N1CCCC1 (stereo not given)	1%	-7	.	22	0.9	13	-2.4	0.1
Cc1ccc(-n2nc(C(=O)O)c(C)c(C#N)c2=O)cc1Cl	.	-3	-3.9	6	0.1	-5	-0.8	-1.5
CN(C)c1ccc(NC(=O)Oc2ccccc2)cc1	29%	-2	.	-10	1.9	5	11	-3.6
O=C(COc1ccc2c(-c3ccccc3)cc(=O)oc2c1)Nc1ccc(CN2CCOCC2)cc1	-7%	-1	-0.3	11	-0.2	2	0.3	0.2
N#CCCn1cc(C(N)=O)c(-c2ccc3ccccc3c2)n1	.	1	-2.7	-5	0.2	-16	3.3	2.3
CCOC(=O)N1CCN(C(=O)c2ccccc2NC(=O)c2ccc(Br)cc2)CC1	-3%	1	-0.5	-16	-0.3	-4	-1.8	3.4
O=C(Nc1cccc([N+](=O)[O-])c1)c1cc(S(=O)(=O)Nc2ccccn2)ccc1Cl	.	-3	1.4	-16	2.0	8	2.0	-0.7
CC(=O)N1CCN(c2c(F)c(F)c(C(F)(F)F)c(F)c2F)CC1	14%	.	-18	15	.	-11	0.8	.
CCOC(=O)c1c(NC(=S)Nc2ccc(Cl)cc2)sc(C)c1C	-5%	.	.	-2	.	3	-4.1	.
CCCc1ccc2oc(C(=O)NCCc3cnn(C)c3)c(C)c2c1	4%	-2	-6.2	-5	-1.5	-1	2.1	2.6
Cc1ccc(-c2cc(C(F)(F)F)nc(SCC(=O)c3cccc([N+](=O)[O-])c3)n2)cc1	4%	20	.	5	0.4	-5	1.1	-4.7
COc1cc(-c2nc3ccccn3c2/N=C/c2ccc(F)cc2)ccc1O	.	-1	2.5	2	-1.4	-9	-0.1	-0.6
Cc1ccccc1Nc1ncnc2c1cnn2C	-1%	-9	-0.7	22	-1.7	-13	1.0	-5.9
Cc1cc(S(=O)(=O)NCC(C)C)ccc1OCC(=O)NCc1ccccn1	4%	-5	.	6	0.3	-5	0.9	-4.0
CCOc1cc(C(=O)NC(C)Cc2cccs2)cc(OCC)c1OCC (stereo not given)	?	4	-0.2	?	-0.3	7	1.8	-3.2
C=C(C)C1CC=C(C)/C(=N/NC(=O)COc2ccccc2C)C1 (stereo not given)	-1%	-6	-3.1	5	0.8	17	-3.1	-2.0
COc1ccc(Cl)cc1S(=O)(=O)N1CCN(C(=O)c2n[nH]c(=O)c3ccccc23)CC1	-12%	-6	4.2	.	-0.2	.	.	-0.8
C#CCOn1c(-n2nc(C)cc2C)nc2ccccc2c1=O	-3%	-5	0.4	0	-0.5	-16	2.9	-1.4
O=C(NCCc1ccc(F)cc1)c1ccncc1	.	.	-3.4	1	0.1	0	-3.2	2.6
